Compound activity as filed in PubChem BioAssay.
NPYLR7 ag – agonists of mosquito NPYLR7 receptor, primary screen, cell-based, Aedes aegypti, calcium fluorescence, mosquito biting behavior. AID 1259423, 2018. HEK293T NPYLR7/Galpha15, GCaMP6s calcium fluorescence. 270,000 tested, 0.15% active. activation, % at 10 µM; in the data active = activation above about 40%;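 note: 0% = vehicle and 100% = reference agonist at the receptor; some compounds past the cut are filed as inactive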
NPYLR7 ag max-min – further read-out of NPYLR7 ag, marked with its call; activation, %; measured here: Max-Min RFU normalised activation; some inactives read as strong as hits;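 span of the calcium signal over five minutes; 0% = vehicle and 100% = native peptide agonist; compound fluorescence can raise it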
An asterisk follows results filed as active; & = joins results of further samples.

nr	SMILES	NPYLR7 ag max-min	NPYLR7 ag
1	CCOc1ccccc1NC(=O)CSc1nc(=O)n(CCCN2CCOCC2)c2c1CCCC2	-2	-3
2	COc1nc(-c2ccccc2F)n(-c2ccc(NC(=O)Nc3ccc(F)cc3F)cc2)n1	13	6
3	COCCCN(Cc1c(C)nn(-c2ccccc2)c1N1CCN(C)CC1)C(=O)CSc1ccccc1	9	1
4	CCOc1ccc(C(=O)Nc2ccc(NC(=O)c3cccc(C)c3)cc2)cc1[N+](=O)[O-]	2	0
5	O=S(=O)(c1ccccc1)N1CCN(S(=O)(=O)c2ccccc2)C1	-3	-1
6	O=C1SC(=Cc2cccs2)C(=O)N1CCNC=CC(=O)C(F)(F)F	4	5
7	CCc1ccc(-c2ccc(Nc3ccc(C(N)=O)cc3)nn2)cc1S(N)(=O)=O	-21	-17
8	CC[C@H](C)C(=O)O[C@H]1C[C@H](O)C=C2C=C[C@H](C)[C@H](CC[C@@H](O)C[C@@H](O)CC(=O)O)[C@H]21	-17&-15&0	-10&-8&9
9	Cc1nc(C(=O)N(Cc2cncs2)C2CC2)cs1	2	7
10	CN(Cc1ccc(Br)cc1)C(=O)CN1C(=O)CC2(CCCCC2)C1=O	1	2
11	Cc1cccc(Cn2nc(-c3ccc(F)cc3)c3sc(C)nc3c2=O)c1	-4	-2
12	NCCOc1ccc(C23CC4CC(CC(C4)C2)C3)cc1	-1	1
13	COc1cc(C=NNc2ccc(C(F)(F)F)cn2)cc(OC)c1	-12	-7
14	CNC(=O)c1cccc(-n2cnc(-c3ccccc3)c2)c1	-4	-5
15	Cc1ccc(-n2c(SCc3ccc([N+](=O)[O-])cc3)nc3c(c2=O)SCC3)cc1	-3	-2
16	CCN1CCC(N(C(=O)C2CCCc3ccccc32)C2CC2)CC1 (configuration not stated)	1	2
17	CCN(CC)CCNC(=O)c1cc2c(s1)CS(=O)(=O)C2	1	3
18	S=c1[nH]nc(-c2cc(-c3ccccc3)nc3ccccc23)o1	6	3
19	O=S(=O)(NC1CCCCC1N1CCNCC1)c1ccc(Cl)cc1 (configuration not stated)	0	4
20	Cc1ccc(S(=O)(=O)NC(C)Cn2cncn2)cc1 (configuration not stated)	7	0
21	CCc1c(C)nc(-n2nc(C)cc2NC(=O)c2cc(OC)cc(OC)c2)[nH]c1=O	-1	-2
22	NC(=O)c1cc(Cl)ccc1OCC(=O)c1ccc2ccccc2c1	4	10
23	CCNC(=O)c1ccc(C2CCCN2Cc2cccn2-c2nccs2)s1 (configuration not stated)	4	19
24	O=c1[nH]n(-c2ncnc3sc4c(c23)CCCC4)c(=O)c2ccccc12	-6	0
25	c1cc(C2CCCC2)nc(N2CCCOC(CN3CCOCC3)C2)n1 (configuration not stated)	-8	-4

Remaining list, next part:
nr	SMILES	NPYLR7 ag max-min	NPYLR7 ag
26	Cc1nc(CN2CCN(C(=O)c3cc4c(s3)-c3ccccc3CC4)CC2)cs1	3	-1
27	CCOC(=O)C1CCCN(C(=O)C(C)N2CC3=C(C2=O)C(c2ccc(Cl)cc2Cl)NC(=O)N3CC)C1 (configuration not stated)	19	13
28	C=CCC(=O)N(CCSCC)C1CCCCC1	-10	-6
29	CCOCC(=O)Nc1cc(C)nn1-c1nc(-c2ccccc2)cs1	-11	-7
30	O=C1NC2c3ccccc3C(=O)N2c2ccccc21 (configuration not stated)	-3	-6
31	CCOc1ccccc1-c1ccc(-n2cnnc2)nc1C	3	5
32	CCOC(=O)C(=O)N1CCc2cc(OC)c(OC)cc2C1c1ccccc1Cl (configuration not stated)	1	10
33	CCC(CC(C)CO)NC(=O)C(C)(C)c1ccc(Br)cc1 (configuration not stated)	-3	-1
34	CCCc1nc(-c2ccc(Br)cc2)no1	-8	-5
35	CC(C)n1ncc2c(C(=O)N(C)Cc3ccccc3)cc(-c3ccccc3)nc21	10	3
36	C=CCN(CC=C)C(=O)c1ccc(-n2nc(C(=O)OCC)cc2-c2ccc(Cl)cc2)cc1	-8	-3
37	CN(C)C1(CNC(=O)Nc2ccc(N3CCSCC3)c(Cl)c2)CCSC1 (configuration not stated)	0	1
38	COc1cc(OC)cc(C(=O)Nc2ccc(Nc3ccc(-n4cccn4)nn3)cc2)c1	-13	-5
39	Cc1cccc(C(=O)N2C(C(=O)NCc3cccc(C(F)(F)F)c3)COC23CCN(C(=O)c2ccccc2F)CC3)c1 (configuration not stated)	8	-2
40	COc1ccc2oc(=O)c(C(=O)Nc3ccc(C)cc3Br)cc2c1	-8	-3
41	CC(C)COCC(O)CN(Cc1ccc(F)cc1)Cc1cccs1 (configuration not stated)	20	26
42	CCOc1ccc(N2CC(O)(c3cccs3)[N+]3=C2CCCCC3)cc1 (configuration not stated)	-3	-4
43	Cc1c(/C=C/C(=O)C(F)(F)F)c2ccccn2c1CCC#N	2	4
44	O=C(O)CCN1C(=O)CSC1c1cccc(C(F)(F)F)c1 (configuration not stated)	5	3
45	CCCCC(CC)C(=O)Nc1nnc(SC(CC)C(=O)OCC)s1 (configuration not stated)	31	20
46	CCCn1c(N=Cc2c[nH]c3ccccc23)nc2ccccc21	22	-2
47	CCOC(CNc1ncnc2c1nnn2C)OCC	6	10
48	Cc1cccc(C2CC(=O)c3cn4ncnc4nc3C2)c1 (configuration not stated)	4	8
49	CC(C)(C)c1ccc(C2SCCN2C(=O)Nc2ccccc2Br)cc1 (configuration not stated)	20	7
50	Cc1cc(NC(=O)C2C3CC4OC(=O)C2C4C3)cc(C)c1Br (configuration not stated)	0	3

Another view of part of the listing above:
[26] Cc1nc(CN2CCN(C(=O)c3cc4c(s3)-c3ccccc3CC4)CC2)cs1
  NPYLR7 ag max-min: 3
  NPYLR7 ag: -1

[27] CCOC(=O)C1CCCN(C(=O)C(C)N2CC3=C(C2=O)C(c2ccc(Cl)cc2Cl)NC(=O)N3CC)C1 (configuration not stated)
  NPYLR7 ag max-min: 19
  NPYLR7 ag: 13

[28] C=CCC(=O)N(CCSCC)C1CCCCC1
  NPYLR7 ag max-min: -10
  NPYLR7 ag: -6

(listing goes on)
nr	SMILES	NPYLR7 ag max-min	NPYLR7 ag
51	CCc1ccc(S(=O)(=O)N2CCN(CC(=O)Nc3cc(C)on3)CC2)cc1	0	-1
52	O=C(Nc1c(C(=O)N2CCOCC2)oc2ccccc12)c1cccs1	-15	-16
53	CCCc1cncnc1N1CCC(C2CCN(c3ncccn3)CC2)C1 (configuration not stated)	-10	-3
54	O=S(=O)(c1c(F)c(F)c(F)c(F)c1F)N1CCN(c2nc3ccccc3nc2-c2ccccc2)CC1	1	5
55	COc1ccccc1CN1CC(O)CN(C(=O)c2cccs2)CC1=O (configuration not stated)	35	27
56	COC(=O)c1c(-c2cc(OC)c(OC)c(OC)c2)c2ccnc(OCc3ncccn3)c2c(=O)n1Cc1ccnc(C)c1	-5	1
57	O=C(CC1CCCO1)NCc1cccc(OCc2ccccc2)c1 (configuration not stated)	2	3
58	Cc1ncc(-c2c(-c3ccccc3)ncn2CCN(C)S(C)(=O)=O)[nH]1	2	5
59	Cn1c(CCC(=O)N2CCNCC2C(=O)NC2CC2)nc2cccnc21 (configuration not stated)	6	9
60	CCc1[nH]n(-c2ccccc2)c(=O)c1C1=C(N2CCN(CC)CC2)C(=O)N(CCOC)C1=O	40	28
61	O=C(Nc1ccc(Cl)c(-c2nc3cc(Cl)ccc3o2)c1)c1ccccc1[N+](=O)[O-]	21	17
62	CCNC(=O)O[C@H]1C(=O)N(C)C2(CCN(C(=O)Cc3ccc(OC)cc3)CC2)[C@@H]1C(=O)NC	19	10
63	CN(C)CCCN1C(=O)C(=O)C(=C(O)c2ccc(F)cc2)C1c1ccc(F)cc1 (configuration not stated)	17	13
64	N#Cc1cc(NCC(O)COCC2CC2)nc2ccccc12 (configuration not stated)	-5	0
65	O=C(CNc1ccc2c(c1)OCCO2)N1CCCC1c1cccs1 (configuration not stated)	-2	-1
66	CCCN(CC(=O)N(Cc1ccc(F)cc1)Cc1ccc(C)o1)C(=O)c1ccc(C(F)(F)F)cc1	14	2
67	CONC(=O)NCCC1CCCC(C)C1 (configuration not stated)	-4	2
68	Cc1ccc(C(=O)NCCc2nnc3ccc(SCC(=O)N4CCCC4)nn23)cc1	-29	-29
69	COc1cccc(NC(=O)CCC2CCN(C(=O)CC3=CCCCC3)CC2)c1	1	6
70	O=C(CSCc1ccccc1Cl)NCc1n[nH]c2c1CCC2	-11	0
71	COc1cccc(CSc2nnc(CNC(=O)c3cccc([N+](=O)[O-])c3)n2-c2ccc(C)cc2)c1	21	14
72	CCOC(=O)c1nn(-c2ccc(C(F)(F)F)cc2)c(=O)c2c(NC(=O)C3CCCCC3)scc12	2	1
73	O=C1NCC2(CCCN(C(=O)CCn3cnc4ccccc4c3=O)C2)O1 (configuration not stated)	7	9
74	Cn1cc(C(CC(=O)NC2CC2)c2cccc(C(F)(F)F)c2)c2ccccc21 (configuration not stated)	32	25
75	Cn1c(O)c(N=NC(=O)c2ccncc2)c2ccccc21	-8	-3

Next section.
nr	SMILES	NPYLR7 ag max-min	NPYLR7 ag
76	CC1CCN(S(=O)(=O)c2cccc3c2C(=O)c2ccccc2C3=O)CC1	-7	-4
77	Clc1ccc(-c2nc(CSc3ccccc3)cs2)cc1	-10	-2
78	Cc1cc(C)c2c(N)c(C(=O)NCC3CCCCC3)sc2n1	-2	-3
79	O=C(CCCl)Nn1cnc2c(cnn2-c2cccc(Cl)c2)c1=O	1	6
80	COCCCn1c(C(=O)Nc2ccc(C)c(F)c2)cc2c(=O)n(C)c(=O)n(C)c21	-3	0
81	CC(C)(Oc1ccc(Cl)cc1)C(=O)N1CCC(=O)Nc2cc(F)ccc21	2	1
82	Cc1ccc(NC(=O)N2CCN(C(=O)CCN3CCc4sccc4C3c3cccc(F)c3)CC2)cc1 (configuration not stated)	-6	-15
83	O=C1c2ccccc2C(=O)C1c1ccccc1	-6&-13	-3&-9
84	COc1ccccc1-c1n[nH]c(=S)o1	8&-3	1&0
85	CC1CCc2sc(-c3nnc(SC4CCOC4=O)o3)cc2C1 (configuration not stated)	3	5
86	CCCCc1ccc(C(=O)N2CCc3nc(-c4ccccc4)nc(N4CCCC4)c3C2)cc1	-4	-8
87	Cc1cc2c(c(=O)o1)C(c1ccc(Cl)c([N+](=O)[O-])c1)C(C#N)C(=N)O2 (configuration not stated)	-3	-3
88	COCCCN(CC(=O)N1CCc2sccc2C1c1ccc(F)cc1)C(=O)C(c1ccccc1)c1ccccc1 (configuration not stated)	-1	-4
89	CC1=CC(=NN=C(N)N)CC1	-2	0
90	CCc1cccc(NC(=O)N2CCSC2c2cccc(C(F)(F)F)c2)c1 (configuration not stated)	21	13
91	CC(=O)N(CN1C(=O)c2ccc(Br)cc2C1=O)c1cc(Br)ccc1C	6	4
92	C(=NN1CCOCC1)c1c2ccccc2cc2ccccc12	-27	-20
93	CCOC(=O)CCC(=O)Nc1nnc(SCc2ccccc2C#N)s1	1	0
94	CC(=O)C(Cc1ccccc1)NC(=O)CSc1cccc(C(F)(F)F)c1 (configuration not stated)	1	0
95	O=C(OCc1nc(-c2cccs2)no1)c1ccco1	20	17
96	COc1ccc(-c2ccc(C(=O)NCC3CC3)c3occc23)c(C)c1	-16	-14
97	CCc1nn2c(nnc3c(=O)n(CC(=O)O)ccc32)c1-c1ccc(Cl)cc1	0	2
98	Cc1nc(-c2ccc(Br)cc2)nn1CN1CCOCC1	8	13
99	CNC(=S)NNc1ccc(S(N)(=O)=O)cc1[N+](=O)[O-]	5	3
100	CNc1nc(N2CCC(n3nccc3NC(=O)C3CC3)CC2)nc2c1CCC2	-6	11

Whole records, looked up by structure.
CC(=O)C(Cc1ccccc1)NC(=O)CSc1cccc(C(F)(F)F)c1 (configuration not stated) is entered as NPYLR7 ag max-min: 1; NPYLR7 ag: 0
COc1ccc(-c2ccc(C(=O)NCC3CC3)c3occc23)c(C)c1 is entered as NPYLR7 ag max-min: -16; NPYLR7 ag: -14

The list goes on.
nr	SMILES	NPYLR7 ag max-min	NPYLR7 ag
101	COc1nc(-c2noc(C)n2)nc(N2CCCC2)n1	0	-1
102	O=C(Cc1ccccc1)NC1CCN(c2ccccc2C(=O)N2CCN(C(=O)C3CCCO3)CC2)CC1 (configuration not stated)	4	2
103	Cc1cc(C(=O)N(CCCN2CCOCC2)c2nc3ccccc3s2)n(C)n1	-1	0
104	Cc1nc(-c2cccc(F)c2)nc(N2CCNCC2)c1Cc1ccccc1	6	-3
105	CC(C)N(Cc1nccn1Cc1ccccc1F)C(=O)c1cccc(F)c1	15	7
106	CCC(SCCN1C(=O)CNC1=O)c1ccccc1 (configuration not stated)	29	-2
107	COc1cccc(C(=O)NCCNc2cc(-n3ccnc3C)nc(C)n2)c1OC	-19	-14
108	O=C(Nc1c2c(nn1-c1ccccc1)CS(=O)(=O)C2)c1ccc2ccccc2c1	-6	-4
109	CCOc1cc(/C=C(\C#N)c2nc3ncc(Br)cc3[nH]2)ccc1O	69*	90*
110	COc1ccc(S(=O)(=O)N2CCC(C)C2)cc1C1(C)NC(=O)NC1=O (configuration not stated)	0	4
111	CCN1CCc2cc(OC)c(OC)cc2C1CNC(=S)NC1CC1 (configuration not stated)	0	-3
112	O=C(c1sc2ccccc2c1Cl)N(c1ccccc1)C1CCCCC1	-1	-8
113	O=C(CCc1cccs1)N1CCC(n2c(Cc3ccccc3)nc3ccccc32)CC1	6	4
114	CCCCCCCn1c(CN2CCN(c3ccc(F)cc3)CC2)nc2c1c(=O)n(C)c(=O)n2C	-1	2
115	NC(=O)CSc1n[nH]c(=S)s1	2	0
116	CCN(C/C=C/c1ccccc1)C(=O)c1ccc(C2CCCN2)s1 (configuration not stated)	17	16
117	CC(NC(=O)Cc1c(F)cccc1Cl)c1ccncc1 (configuration not stated)	-4	-1

3 entries picked at random from those above, as already listed:
nr	SMILES	NPYLR7 ag max-min	NPYLR7 ag
8	CC[C@H](C)C(=O)O[C@H]1C[C@H](O)C=C2C=C[C@H](C)[C@H](CC[C@@H](O)C[C@@H](O)CC(=O)O)[C@H]21	-17&-15&0	-10&-8&9
38	COc1cc(OC)cc(C(=O)Nc2ccc(Nc3ccc(-n4cccn4)nn3)cc2)c1	-13	-5
115	NC(=O)CSc1n[nH]c(=S)s1	2	0

An excerpt; rates above refer to the full screens.
